ID4 binder: binders of human ID4 protein | hit rate 1.2% among 31,000 | calls only | small molecule microarray, Flag-ID4 binding, fluorescence F/B;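 active = spot signal over background at p below 0.07 in all four prints; compounds were printed on slides so no solution concentration is given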;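 also: a binder raises fluorescence above local background on the spot; about 2 pmol printed per array spot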
Target sequence (P47928 whole entry, looked up): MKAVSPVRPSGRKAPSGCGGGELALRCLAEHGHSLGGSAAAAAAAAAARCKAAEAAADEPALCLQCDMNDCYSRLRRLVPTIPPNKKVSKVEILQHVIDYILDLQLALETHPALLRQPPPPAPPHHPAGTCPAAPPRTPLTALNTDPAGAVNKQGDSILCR
Calls only; i = inactive; + = active, no number. Not all compounds are listed; rates above refer to the full screens.

SMILES	ID4 binder
CCCC#Cc1ccc2c(c1)O[C@@H](CN(C)C(=O)c1cnccn1)[C@H](C)CN([C@H](C)CO)S2(=O)=O	i
COc1cccc(C2Nc3cccc4cccc(c34)N2)c1O	i
CCSc1ncc(Cl)c(C(=O)Nc2nnc(SCc3ccccc3F)s2)n1	i
O=C(C[C@H]1CC[C@H](NC(=O)C2CCC2)[C@@H](CO)O1)NCCCN1CCOCC1	i
COc1ccccc1-c1cnc2c(c1)C(=O)N([C@H](C)CO)C[C@@H](C)[C@H](CN(C)C(=O)c1ccncc1)O2	i
CCC(=O)N(C)C[C@H]1Oc2ncc(C#CC(C)C)cc2C(=O)N([C@@H](C)CO)C[C@@H]1C	i
COC(=O)c1ccccc1NC(=O)NC(C)c1cc(OC)ccc1OC (stereo not drawn)	i
O=C(C[C@H]1C[C@H]2c3cc(NS(=O)(=O)c4ccc(F)cc4)ccc3O[C@H]2[C@@H](CO)O1)N1CCOCC1	i
C/C=C/c1ccc2c(c1)O[C@H](CN(C)C(=O)Nc1ccc(F)cc1)[C@H](C)CN([C@@H](C)CO)S2(=O)=O	i
O=C(CN1C(=O)CSc2ccccc21)Nc1ccccc1C(=O)N1CCOCC1	i
COc1ccc(F)cc1S(=O)(=O)Nc1ccncc1	i
COCC#Cc1ccc2c(c1)O[C@@H](CN(C)CC1CCOCC1)[C@H](C)CN([C@@H](C)CO)S2(=O)=O	i
O=C(O)CCCc1nc2ccccc2s1	i
CO[C@@H](CN(C)S(=O)(=O)c1cccc(Cl)c1)[C@@H](C)CN([C@@H](C)CO)S(=O)(=O)c1ccc(Cl)cc1	i
O=C(CCn1cnc2ccccc2c1=O)Nc1cccc(C(F)(F)F)c1	i
C/C=C/c1cnc2c(c1)C(=O)N([C@H](C)CO)C[C@@H](C)[C@@H](CN(C)C(=O)C1CCC1)O2	i
O=C(CSc1nnnn1-c1ccccc1Cl)Nc1ccc(Br)cc1	i
O=C(CCSc1nc(-c2ccco2)cc(C(F)(F)F)n1)NCCc1ccccc1	i
O=C(CSc1ncnc2sc3c(c12)CCCC3)Nc1ccc(F)c(Cl)c1	i
Cc1c(Cl)cccc1NC(=O)CSC1CC(=O)N(c2ccccc2)C1=O (stereo not drawn)	i
O=C(CSc1nnc(-c2ccncc2)n1-c1ccccc1)Nc1ccnc2ccccc12	i
CCOC(=O)c1c(NC(=O)CSc2nnc(C)s2)sc(C)c1C	i
O=C(O)C[C@@H]1CC[C@@H](NC(=O)c2ccccc2F)[C@@H](CO)O1	i
CCn1c(SCC(=O)Nc2ccc(Br)c(Cl)c2)nnc1-c1ccc(Cl)cc1	i
COC(=O)c1c(NC(=O)CC2Nc3cccc4cccc(c34)NC2=O)sc2c1CCCC2 (stereo not drawn)	i
O=C(N[C@@H]1C=C[C@H](CC(=O)N2CCOCC2)O[C@@H]1CO)c1ccc2c(c1)OCO2	i
C[C@@H]1CN([C@@H](C)CO)C(=O)c2cccc(N(C)C)c2O[C@H]1CN(C)Cc1ccc2c(c1)OCO2	i
O=C(CSc1nccc(=O)[nH]1)Nc1cccc(Br)c1	i
O=C(C[C@H]1C=C[C@H](NC(=O)c2cccnc2)[C@@H](CO)O1)NCCN1CCCCC1	i
CS(=O)(=O)N(CC(=O)Nc1ccccc1Sc1ccccc1)c1cccc(C(F)(F)F)c1	i
COc1ccc(CCNC(=O)[C@@]2(Sc3ccc(C)cc3)CC(=O)N(C(C)C)[C@@H]2c2ccc(CO)cc2I)cc1	i
O=C(C[C@H]1CC[C@H](NC(=O)Cc2ccccn2)[C@@H](CO)O1)NCCc1ccccc1	i
O=C(N[C@H]1CC[C@H](CCn2cc(-c3ccccc3)nn2)O[C@H]1CO)c1ccccc1F	i
Cc1ccccc1-c1cnc2c(c1)C(=O)N([C@H](C)CO)C[C@@H](C)[C@@H](CN(C)Cc1cccnc1)O2	i
NC(=O)NCC#Cc1ccc2c(c1)[C@]1(C(=O)N2)[C@H](c2ccc(OCCO)cc2)N2[C@H](c3ccccc3)[C@H](c3ccccc3)OC(=O)[C@H]2[C@@H]1C(=O)N1CCCCCCC1	i
C[C@@H]1CN([C@H](C)CO)C(=O)Cc2cc(NC(=O)CCC(F)(F)F)ccc2O[C@@H]1CN(C)CC1CC1	i
NC(=O)[C@]1(Cc2ccccc2)N=C(c2ccc(OCCCO)cc2)O[C@@H]1c1ccccc1	i
CC(C)(C)Cc1nc(C2(c3ccc(Cl)cc3Cl)CC2)no1	i
C[C@@H]1CN([C@@H](C)CO)S(=O)(=O)c2ccc(Br)cc2O[C@@H]1CN(C)S(=O)(=O)c1ccc(F)cc1	i
CCN(CC(=O)Nc1cccc(Cl)c1)S(=O)(=O)c1ccc(Br)cc1	i
Cc1ccc(S(=O)(=O)NCC(=O)Nc2ccc(Br)cc2F)cc1	i
COC(=O)c1ccccc1NC(=O)COc1cc(C)c(Br)c(C)c1	i
O=C(Cc1ccccc1[N+](=O)[O-])Nc1ccc(S(=O)(=O)N2CCCCC2)cc1	i
O=C(O)c1cc(NC(=O)C2CC=CCC2C(=O)O)ccc1Cl (stereo not drawn)	+
Cc1cc([N+](=O)[O-])ccc1NC(=O)CSc1nnc(-c2ccccc2)o1	i
C/C=C/c1cnc2c(c1)C(=O)N([C@H](C)CO)C[C@@H](C)[C@@H](CN(C)C(=O)C1CCCCC1)O2	i
CCCC#Cc1cnc2c(c1)C(=O)N([C@H](C)CO)C[C@@H](C)[C@@H](CN(C)C(=O)Cc1ccccc1)O2	i
Cc1c(Cl)cccc1NC(=O)CCN1C(=O)c2ccc([N+](=O)[O-])cc2C1=O	i
C[C@H](CO)N1C[C@H](C)[C@H](CN(C)S(=O)(=O)c2ccccc2)Oc2ncc(C#Cc3ccccc3F)cc2C1=O	i
COc1ccccc1CCNC(=O)c1cc(-c2ccc(C)o2)nc2ccccc12	i
O=C(C[C@@H]1C[C@H]2c3cc(NC(=O)c4ccc5c(c4)OCO5)ccc3O[C@H]2[C@H](CO)O1)NCCc1ccccc1	i
CC(C)c1ccc(OCC(=O)Nc2ccccc2-c2nc3ccccc3s2)cc1	i
COc1ccccc1-c1cnc2c(c1)C(=O)N([C@@H](C)CO)C[C@@H](C)[C@@H](CN(C)C(=O)c1cccnc1)O2	i
CS(=O)(=O)N(CC(=O)Nc1ccc(Oc2ccccc2)cc1)c1ccc2c(c1)OCCO2	i
C[C@H](O)C#Cc1cnc2c(c1)C(=O)N([C@H](C)CO)C[C@@H](C)[C@H](CN(C)Cc1cccc(F)c1)O2	i
C[C@@H]1CN([C@H](C)CO)C(=O)c2cc(-c3ccccc3F)cnc2O[C@@H]1CN(C)C(=O)CN(C)C	i
CC(C)C#Cc1cnc2c(c1)C(=O)N([C@H](C)CO)C[C@H](C)[C@@H](CN(C)C(=O)c1ccccc1F)O2	i
O=C(C[C@H]1CC[C@H](NC(=O)C2CCC2)[C@H](CO)O1)NCCCN1CCOCC1	i
CCCC#Cc1cnc2c(c1)C(=O)N([C@@H](C)CO)C[C@@H](C)[C@H](CN(C)Cc1ccncc1)O2	i
CCCOc1ccc(C(=O)C2C(=O)C(=O)N(c3nc(C)c(C(=O)OC)s3)C2c2ccco2)cc1 (stereo not drawn)	i
The list continues.
SMILES	ID4 binder
C[C@@H]1CN([C@@H](C)CO)S(=O)(=O)c2ccc(-c3ccccc3)cc2O[C@@H]1CN(C)C	i
CC(C)(O)/C(=C/C#N)n1cccn1	i
COC(=O)c1sccc1NC(=O)c1cc(-c2ccccn2)nc2ccc(Br)cc12	i
C[C@@H]1CN([C@H](C)CO)C(=O)c2cc(C3=CCCCC3)cnc2O[C@H]1CN(C)CC1CCOCC1	i
COC(=O)c1ccc(NC(=O)CN(c2ccccc2Br)S(C)(=O)=O)cc1	i
COc1ccc(OCC(=O)Nc2ccc(C)cc2[N+](=O)[O-])cc1	i
CCCN(C)C[C@H]1Oc2cc(-c3ccc(F)cc3)ccc2S(=O)(=O)N([C@H](C)CO)C[C@H]1C	i
O=S(=O)(c1cccc2cccnc12)N1CCN(Cc2ccc(OCCO)cc2)CC1	+
Cc1ccc(NC(=O)c2c(NC(=O)CN3CCOCC3)sc3c2CCC3)c(C)c1	i
C[C@H]1CN([C@@H](C)CO)C(=O)c2ccccc2-c2ccccc2CO[C@H]1CN(C)Cc1ccccc1	i
O=C(N1CCOCC1)[C@@]1(CCS(=O)(=O)c2ccccc2)N=C(c2ccc(OCCCO)cc2)O[C@H]1c1ccccc1	i
CN(CC(=O)O)S(=O)(=O)c1ccc2ccccc2c1	i
CC(C)CC#Cc1ccc2c(c1)O[C@H](CN(C)Cc1ccc3c(c1)OCO3)[C@H](C)CN([C@@H](C)CO)S2(=O)=O	i
COCC#Cc1cnc2c(c1)C(=O)N([C@@H](C)CO)C[C@H](C)[C@H](CN(C)Cc1ccccc1F)O2	i
NC(=O)C1(N2CCCCC2)CCN(CC(=O)Nc2ccc(Br)cc2)CC1	i
COc1cc(S(=O)(=O)NCC2CCCO2)c(OC)cc1Cl (stereo not drawn)	i
COc1ccccc1CCNC(=O)c1cc(-c2ccncc2)nc2ccc(Br)cc12	i
CCOC(=O)c1c(NC(=O)COc2ccc(C)cc2Br)sc(C)c1C	i
CC(=O)c1ccc(NC(=O)CSc2nccn2C)cc1	i
CCC(=O)N[C@@H]1CC[C@H](CC(=O)OC)O[C@@H]1CO	i
CNC(=O)CN(c1ccc(Br)cc1)S(=O)(=O)c1ccc(C)cc1	i
Cc1ccc(-c2csc3nnc(SCC(=O)N4CCOCC4)n23)cc1	i
O=C(O)CCCC(=O)Nc1cc(C(=O)O)ccc1Cl	i
COc1ccc(NC(=O)CSc2c(C)n[nH]c2C)cc1	i
COc1ccc(OCC(=O)Nc2ccc(-c3nc4ccc(C)cc4o3)cc2)cc1	i
COc1cc(C(=O)NCc2ccco2)cc(OC)c1OC	i
C[C@@H]1CN([C@H](C)CO)C(=O)Cc2cc(N(C)C)ccc2O[C@H]1CN(C)CC1CC1	i
CCCC#Cc1ccc2c(c1)O[C@H](CN(C)CC1CCOCC1)[C@H](C)CN([C@H](C)CO)S2(=O)=O	i
C[C@H](CO)N1C[C@H](C)[C@H](CN(C)C(=O)Cc2ccccc2)Oc2ncc(C#CCN(C)C)cc2C1=O	i
CC(=O)Nc1cccc(NC(=O)CSc2nnnn2C)c1	i
C[C@@H]1CN([C@@H](C)CO)C(=O)c2cc(-c3cncnc3)cnc2O[C@H]1CN(C)C(=O)CN1CCOCC1	i
CC(C)C#Cc1ccc2c(c1)O[C@H](CN(C)C)[C@@H](C)CN([C@@H](C)CO)S2(=O)=O	i
COc1ccccc1NC(=O)Cn1cc(C(=O)c2ccccc2F)c2ccccc21	i
COc1ccc(NC(=O)CN(C2CCCCC2)S(C)(=O)=O)cc1OC	i
O=C(C[C@@H]1C=C[C@@H](NC(=O)C2CC2)[C@@H](CO)O1)Nc1ccccc1	i
CCNC(=O)C[C@@H]1C=C[C@H](NC(=O)C2CC2)[C@@H](CO)O1	i
Cc1nc(SCC(=O)n2c3c(c4ccccc42)CCCC3)n[nH]1	i
CCOC(=O)c1ccc(/C=N/O)[n+](Cc2ccccc2)c1	i
CNC(=S)N(Cc1ccco1)C1CC(=O)N(c2ccc(C(=O)OC)cc2)C1=O (stereo not drawn)	i
C[C@@H]1CN([C@H](C)CO)C(=O)c2cc(-c3ccccc3)cnc2O[C@H]1CN(C)C(=O)c1ccccc1F	i
COc1ccc(Cl)cc1NC(=O)C12CCC(C)(c3nc4ccccc4nc31)C2(C)C (stereo not drawn)	i
CCOc1ccc(NC(=O)Cn2cncc2-c2ccc([N+](=O)[O-])cc2)cc1	i
COc1ccc(-c2nc3ccccc3s2)cc1NC(=O)COc1cc(C)ccc1C(C)C	i
Cc1cccc(OCC(O)Cn2cnc3cc(C)c(C)cc32)c1 (stereo not drawn)	i
C[C@@H]1CN([C@@H](C)CO)S(=O)(=O)c2ccc(C3=CCCCC3)cc2O[C@@H]1CN(C)Cc1ccccc1	i
C[C@H](NC(=O)C[C@H]1C[C@H]2c3cc(NC(=O)c4cccnc4)ccc3O[C@H]2[C@H](CO)O1)c1ccccc1	i
CCC(=O)N(C)C[C@H]1Oc2ncc(C#Cc3ccc(OC)cc3)cc2C(=O)N([C@@H](C)CO)C[C@H]1C	i
C[C@H](CO)N1C[C@H](C)[C@H](CN(C)C)Oc2cc(-c3ccc(F)cc3)ccc2S1(=O)=O	i
CCCC#Cc1cnc2c(c1)C(=O)N([C@@H](C)CO)C[C@H](C)[C@@H](CN(C)C(=O)C1CCCCC1)O2	i
CCN(CC)c1nc(Cl)nc(N(C)C#N)n1	i
CCOC(=O)c1c(NC(=O)CSc2nc(C)nc3sc4c(c23)CCC4)sc(C)c1C	i
CN(C)C(=O)C[C@@H]1CC[C@@H](NC(=O)C2CCC2)[C@@H](CO)O1	i
O=C(C[C@@H]1C[C@@H]2c3cc(NC(=O)C4CCOCC4)ccc3O[C@@H]2[C@@H](CO)O1)NCCN1CCCCC1	i

Screening results deposited in PubChem BioAssay by Broad Institute.
